Source: PubChem
AID504770 = E. coli YBA685 growth inhibition, screen for V. cholerae RctB inhibitors; E. coli YBA685 rctB-dependent plasmid, OD600 growth, 3 h; active compounds read low; z-score (concentration not given with the values); hit rate 0.27% among 130,000; AID 504770;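 active = z-score under -2 on both plates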;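 note: wells of about 30 µL received 100 nL stock; score is relative to mean and SD of the test wells; the first replicate is given; strong numbers were not always called active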
Ba CapD inh = CapD enzyme inhibition; purified CapD enzyme, fluorescence intensity read-out; active compounds read low; some hits fall short of the stated cut; z-score (no concentration beside the values); hit rate 0.23% among 140,000;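 active = z-score under -4 in either of two replicates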;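 note: stock transfer was 100 nL into about 40 µL; score is relative to mean and spread of the plate; one replicate is shown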
* hit, by the source's call; x = no result given; & = joins results of further samples. No enrichment for hits; overall some 0.39% were active at least once.

| Molecule | AID504770 | Ba CapD inh |
| --- | --- | --- |
| CCOC(=O)c1ccc2nc(NC(=O)CSCC(=O)OCC(=O)c3ccc(Br)cc3)sc2c1 | x | -0.27 |
| CCOC(=O)N1CCN(Cc2nc3c(c(=O)n(C)c(=O)n3C)n2CC)CC1 | 2 | -0.025 |
| O=C(O)Cn1cc(C(F)(F)F)ccc1=O | -0.65 | x |
| CCc1noc(C)c1C(=O)OCC(=O)c1ccccc1OC | -0.65 | x |
| CN(C)CN1C(=O)C(=Nc2ccc3ccccc3c2)c2ccccc21 | -0.75 | 8.1 |
| COc1cccc(C(=O)Cn2c(=O)n(CCC(=O)NC3CCCC3)c(=O)c3cc(OC)c(OC)cc32)c1 | -0.35 | 0.46 |
| COc1ccc(CC(=O)NCc2nn(-c3ccccc3)nc2C)cc1OC | -0.85 | 0.96 |
| CSC(=CC(=O)c1ccccc1F)SC | -0.85 | -4.1* |
| Brc1ccc(-c2nc(NCCCN3CCOCC3)c3ccccc3n2)cc1 | x | 3.6 |
| CC(C)=NNC(=O)c1nnn(-c2nonc2N)c1CN1CCOCC1 | -0.5 | x |
| O=c1c2ccccc2nnn1CSc1nncn1-c1ccccc1 | -0.15 | x |
| Cc1ccc(Cn2c(-c3cscn3)nc3ccccc32)cc1 | -0.2 | 1.2 |
| O=C(Nc1ccccc1)C(Cc1c[nH]c2ccccc12)NC(=O)C(c1ccccc1)c1ccccc1 (stereo not given) | x | -0.38 |
| CCc1c(C)n2nc(C)cc2[nH]c1=O | -0.55 | 18 |
| Cc1c(C(=O)Nc2ccc(F)cc2F)sc2ncnc(N3CCN(c4ccccn4)CC3)c12 | x | -0.19 |
| C=CCn1c(COc2c(Br)cc(C)c3c2CCC3)n[nH]c1=S | x | 0.4 |
| O=C(N/N=C/c1cccc(O)c1)c1cc(Br)ccc1Cl | x | -0.23 |
| COC(C(=O)O)C(=O)Nc1cc(Cl)cc(Cl)c1 (stereo not given) | 0 | 0.4 |
| CN1C(=O)/C(=C\C=C\c2ccc(N(C)C)cc2)SC1=S | -0.8 | 0.035 |
| Cn1cc(CC(=O)Nc2ccc(F)cc2F)c2ccccc21 | -0.95 | -0.07 |
| CC(=O)NC1CCN(S(=O)(=O)c2ccc3c(c2)CN(C(=O)C(F)(F)F)CC3)C1 (stereo not given) | x | 0.69 |
| O=C(COc1ccccc1)NCC1COc2ccccc2O1 (stereo not given) | 0.65 | x |
| CN(Cc1ccco1)c1nc(-c2ccc(Cl)cc2)nc2ccccc12 | -0.5 | 1.6 |
| CC(C)OCCn1cnc2sc3c(c2c1=O)CCCC3 | -0.3 | 0.39 |
| COc1ccccc1-n1c(=O)c2cc3c(=O)n(-c4ccccc4OC)c(=O)c3cc2c1=O | -0.05 | -0.67 |

Whole records, quoted from the list:
Results for `Cc1c(C(=O)Nc2ccc(F)cc2F)sc2ncnc(N3CCN(c4ccccn4)CC3)c12` = AID504770: x; Ba CapD inh: -0.19
Results for `CCc1c(C)n2nc(C)cc2[nH]c1=O` = AID504770: -0.55; Ba CapD inh: 18

Returning to the listing, repeating the four entries before the break.
| Molecule | AID504770 | Ba CapD inh |
| --- | --- | --- |
| O=C(COc1ccccc1)NCC1COc2ccccc2O1 (stereo not given) | 0.65 | x |
| CN(Cc1ccco1)c1nc(-c2ccc(Cl)cc2)nc2ccccc12 | -0.5 | 1.6 |
| CC(C)OCCn1cnc2sc3c(c2c1=O)CCCC3 | -0.3 | 0.39 |
| COc1ccccc1-n1c(=O)c2cc3c(=O)n(-c4ccccc4OC)c(=O)c3cc2c1=O | -0.05 | -0.67 |
| CCc1cc(Br)ccc1S(=O)(=O)N(C)C1CCN(Cc2ccccc2C(F)(F)F)C1 (stereo not given) | x | 0.38 |
| CCn1c2ccccc2c2cc(CN3CCC(NC(=O)OCc4ccc(C(F)(F)F)c(F)c4F)C3)ccc21 (stereo not given) | x | 22 |
| COC(=O)c1ccc(C(=O)OC)c(NC(=O)c2cc3cc(Br)ccc3oc2=O)c1 | x | -1.1 |
| COc1cc(-c2nc3ccccc3c(=O)n2NC(=O)c2ccc(Cl)cc2)cc(OC)c1OC | x | -0.21 |
| CC(C)NC(=O)CCc1c[nH]c2ccccc12 | 0.15 | x |
| O=C(Nc1cccc(NC(=O)c2ccco2)c1)c1ccc2c(c1)OCCO2 | x | 0.25 |
| O=C(CC(=O)Nn1cnnc1)Nn1cnnc1 | -0.6 | x |
| CCCOc1ccccc1N1C(=O)CC(N(O)c2ccccc2)C1=O (stereo not given) | 0.1 | -0.72 |
| O=C(Nc1nccs1)c1ccccc1-c1ccccc1 | -0.45 | 0.11 |
| CC(C)(C)OC(=O)N1CCC(C(N)=O)CC1 | -0.85 | -0.2 |
| Cn1c(=O)c(C#N)c(-c2cccs2)n2cnnc12 | 0.35 | -0.2 |
| O=C(NN1CCOCC1)c1cccc2ccccc12 | -0.15 | x |
| CCCc1c(C(=O)NNc2ccccc2OC)cnn1-c1ccccc1 | -1.2 | 0.12 |
| Cc1cc(SCCC(=O)O)nc2c(C)cccc12 | -0.9 | 2 |
| O=C(O)c1cccc(OCc2cscn2)c1 | -0.45 | x |
| COc1ccc(OC)c(NC(=O)CSc2nnc(C3CCCCC3)o2)c1 | -0.6 | x |
| O=C1CSC2(CCCCC2)N1c1ccc(Cl)cc1 | 0.55 | x |
| O=C(OCCSc1ccccn1)c1ccccc1 | 0.6 | 0.22 |
| O=C(CSc1oc(-c2ccco2)nc1S(=O)(=O)c1ccccc1)NCC1CCCO1 (stereo not given) | 0.6 | 0.42 |
| Oc1c(C=NC2CCCCC2)[nH]c2ccc(Br)c(Cl)c12 | 1.5 | -1.6 |
| COc1cccc(Cn2c(/C=C/c3ccccc3Cl)nc3ccccc32)c1 | x | 69 |
| O=C(ON=C(c1cccs1)c1cccs1)c1ccc(Cl)cc1 | -0.15 | 0.22 |
| NC(=O)c1oc2ccccc2c1NC(=O)c1ccccc1 | -0.25 | x |
| CCOc1ccc(CN(CCO)CCO)cc1C(=O)OC | 0.15 | -0.1 |
| COCCOC(=O)C1=C(C)NC2=C(C(=O)CC(c3cccs3)C2)C1c1cc(OC)c(OC)c(OC)c1 (stereo not given) | x | 8.6 |
| CCC(C(=O)NC(C)C)n1c2ccccc2c2nc(=O)cc(C)n21 (stereo not given) | -0.95 | -0.03 |
| O=C(Nc1cccc([N+](=O)[O-])c1)c1c(O)c2cccc3c2n(c1=O)CCC3 | x | -0.25 |
| Nc1ccccc1Sc1ccc(Cl)cc1[N+](=O)[O-] | x | -0.54 |
| CCn1c(/N=C/c2ccccc2Cl)nc2ccccc21 | -1.5 | -0.29 |
| O=C(COC(=O)Cc1ccc(Cl)cc1)Nc1ccccc1 | 0.55 | 0.29 |
| COc1cc(C(=O)NNC(=O)OCCc2ccc(Cl)cc2Cl)ccc1O | x | -0.6 |
| CCOC(=O)c1c(C)n(CC)c2ccc(O)cc12 | 0.4 | 0.47 |
| CC(Nc1nncc(=O)[nH]1)c1ccccc1 (stereo not given) | -0.4 | x |
| COc1ccc(C2=NN(C(C)=O)C(c3ccccc3OC)C2)cc1OC (stereo not given) | x | 55 |
| N#Cc1c(-c2ccccc2C(F)(F)F)cc(-c2ccc(Cl)cc2)[nH]c1=O | x | 25 |
| O=C(Nc1c2c(nn1-c1ccc(F)cc1)CSC2)c1ccc(S(=O)(=O)N2CCCCC2)cc1 | x | -0.12 |
| CCOc1ccsc1C(=O)NNC(=O)OCC(CC1CCCCC1)NC(=O)OC(C)(C)C (stereo not given) | x | 0.1 |
| NC(=O)/C=C/c1ccco1 | 1.2 | x |
| CCOC(=O)c1cc(-c2ccc(Cl)cc2)oc1C | -2 | 0.78 |
| COc1cc(OC)c(NC(=O)CCc2ccccc2)cc1Cl | 1.5 | -0.73 |
| O=c1[nH]cnc2c1cnn2-c1ccc2ccccc2c1 | 0.5 | 1.8 |
| O=c1cc(-c2ccccc2)nc(SCCOc2ccccc2F)[nH]1 | 0.85 | 7.8 |
| CC1CCCCN1S(=O)(=O)c1ccc(NC(=O)Cn2cnc3ccccc3c2=O)cc1 (stereo not given) | -0.4 | x |
| COc1ccc(N2C(=O)C(C)C(Cc3ccc(C)cc3)C2=O)cc1 (stereo not given) | 2.4 | x |
| CCOC(=O)c1sc2nc(SCC#N)n(Cc3ccc4c(c3)OCO4)c(=O)c2c1C | x | 0.21 |
| CCCC#CCCOC(=O)NNC(=O)c1ccc(OC)cc1 | x | -0.065 |
| CC(=O)OC(OC(C)=O)C12C=CC(O1)C1C(=O)N(c3ccc(Br)cc3[N+](=O)[O-])C(=O)C12 (stereo not given) | x | -0.22 |
| N=C(N)SCc1c(Cl)cccc1Cl | x | 0.32 |
| COc1ccc(NC(=O)c2cccnc2SC)cc1 | 0.05 | -0.11 |
| CCOC(=O)C1=C(N)n2c(s/c(=C\c3c(F)cccc3Cl)c2=O)=C(C(=O)OCC)C1c1c(F)cccc1Cl (stereo not given) | x | -0.01 |

Next compounds
| Molecule | AID504770 | Ba CapD inh |
| --- | --- | --- |
| CC1(C)CN(c2ccc(Cl)cn2)C1=O | 1.8 | 0.01 |
| Cn1nc(C(C)(C)C)cc1C(=O)NCc1ccc(-c2cccs2)cc1 | -0.45 | 5.7 |
| COc1cccc(-c2nn(Cc3ccccc3)cc2CNCCCn2ccnc2)c1 | -0.1 | x |
| Fc1ccc(-c2cc3ccccc3[nH]2)cc1 | x | 75 |
| CNC(=O)CC1Nc2ccccc2NC1=O (stereo not given) | -1.1 | 2 |
| CCC(Sc1nc2sc(C(=O)OC)c(C)c2c(=O)n1N)C(=O)Nc1cccc(OC)c1 (stereo not given) | 0.15 | 0.81 |
| O=C(COn1nnc2ccccc21)Nc1ccccc1C(=O)Nc1ccc2c(c1)OCO2 | -0.5 | x |
| c1ccc(-c2ccc(-c3ccccc3)o2)cc1 | x | 81 |
| Cc1ccc(CNc2cc(-c3nn4c(C)nnc4s3)ccc2C)s1 | -0.3 | 0.14 |
| Clc1cccc(CSc2nnc(-c3sccc3-n3cccc3)o2)c1 | x | 0.55 |
| CCn1c(SCC(=O)Nc2nc(C)c(C)s2)nnc1C(C)NC(=O)c1ccccc1F (stereo not given) | -0.45 | x |
| CCCCCCOc1ccc(/C=C(\C#N)C(=O)NCc2ccco2)cc1 | 0.05 | x |
| Nc1cc(CCCC(=O)O)sc1CCCC(=O)O | -0.2 | -10* |
| CN1CCCN(C(=O)c2ccncc2)CC1 | 3 | -1.6 |
| CC(NC(=O)c1ccccc1)C(c1cccs1)N1CCOCC1 (stereo not given) | -0.25 | x |
| Cc1cc(C)cc(OCC(=O)OCC(=O)c2ccc3c(c2)OCO3)c1 | -0.4 | x |
| CC(C)(C)C(=O)NC(=S)Nc1cccc(C(F)(F)F)c1 | x | -0.31 |
| CC1(C)Cc2ccccc2-c2nc(NN)[nH]c(=O)c21 | 0.35 | x |
| CN(C)CCNC(=O)c1ccc(N2CCCCS2(=O)=O)cc1 | -2.4 | x |
| CC(C)N(CCC(C(N)=O)(c1ccccc1)c1ccccn1)C(C)C (stereo not given) | 0.2 | 0.17&-0.43 |
| CCOc1ccc(/C=C2\CC/C(=C\c3ccc(OCC)cc3)C2=O)cc1 | -0.15 | -0.99 |
| O=S(=O)(NCCC1=CCCCC1)c1cc(Br)ccc1Br | x | 0.2 |
| COc1ccc(/C=C2\Oc3ccccc3N(CC(=O)N3CCN(c4ncccn4)CC3)C2=O)cc1Br | -0.05 | 23 |
| CC1CN(S(=O)(=O)c2cccc(C(F)(F)F)c2)CC(C)O1 (stereo not given) | 1.4 | -0.3 |
| COc1ccc(/C=C2\SC(=O)N(CCNC(=O)c3cc(S(=O)(=O)N(C)C)ccc3N3CCCC3)C2=O)cc1 | -0.05 | x |
| COc1ccc2c(c1)C13CCCC[C@@H]1C(C2)N(C)CC3 (stereo not given in full) | x | 0.21 |
| COc1ccc(-c2c(-c3ccc(OC)c(OC)c3)c(C)n(C)c2C)cc1OC | -0.9 | 0.26 |
| CC(C)n1nccc1N(Cc1ccc(Cl)cc1)S(=O)(=O)c1ccccc1 | 0.05 | x |
| CCN(CC)C(=O)Cn1cnc2sc(C(=O)NCc3ccccn3)c(C)c2c1=O | x | 0.15 |
| CCOc1ccccc1C1C(C#N)=C(SCC(=O)Nc2ccc(Br)cc2)NC(=O)C1C#N (stereo not given) | x | 1.6 |
| CC(C)(C)c1ccc(-c2[nH]nc(NC(=O)c3ccccc3Cl)c2Br)cc1 | -0.7 | -0.43 |
| NC(=O)C1CCN(C(=O)CSc2nc3ccccc3s2)CC1 | -0.9 | -0.07 |
| O=S(=O)(NC1CC2CCC1C2)c1ccc(Cl)cc1 (stereo not given) | 1 | x |
| Cc1cn2c(=O)c3c4c(sc3nc2s1)CCCC4 | 0.65 | x |
| CN(C)S(=O)(=O)Oc1ccc(C(=O)Nc2cccc(Cl)c2)cc1Cl | x | -0.15 |
| O=C(CCc1ccc(-n2cnc3cccnc32)cc1)NCCc1cccs1 | 0.55 | 1.2 |
| Cc1nnc(SC(C)C(=O)Nc2ccc(N3CCOCC3)cc2)n(N)c1=O (stereo not given) | -0.2 | x |
| CC12CCC3(C)OCC(COC(=O)Nc4ccccc4)(CO1)N23 (stereo not given) | 2 | x |
| Nc1ccccc1C(=O)NCCCN1CCCCC1 | x | 92 |
| COc1ccc(CNC(=O)c2[nH]c(C)c(C(=O)NC3CCCCC3)c2C)cc1 | -0.35 | -0.17 |
| O=S(=O)(c1ccc(Br)cc1)N1CCN(c2ccncc2)CC1 | x | -0.12 |
| O=C(/C=C/c1ccc2c(c1)OC(F)(F)O2)NCCN1CCOCC1 | x | 0.55 |
| COc1ccc(C2(CNC(=O)Cc3ccccc3)CCCCC2)cc1OC | x | 0.03 |
| Cn1c(C(=O)N2CCCC(C(=O)NCCc3ccc(S(N)(=O)=O)cc3)C2)cc2sccc21 (stereo not given) | 0.75 | 0.59 |
| OC1/C(=C/c2ccccc2C(F)(F)F)N2CCC1CC2 (stereo not given) | -0.05 | -0.83 |
| O=C(c1ccccc1)c1cc(Cl)ccc1NC(=O)c1cc2ccccc2oc1=O | x | -0.16 |
